Bioassay records deposited in PubChem by several laboratories.
MT1-MMP act inh: blocks activation of human MT1-MMP | hit rate 0.061% among 360,000 | GFP/RFP ratio change, % at 20 µM | AID 651647 | HT1080 RFP-PRO-GFP cells, GFP/RFP ratio fluorescence, overnight; percent of plate control window, DMSO zero;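 active = GFP/RFP ratio change of at least 30% with cell ATP level not reduced by more than half and red fluorescence within 50% of control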; also: strong numbers were not always called active
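Material: RFP-PRO-GFP reporter HT1080 cells. Dosing: single-point 20 µM compound, 1% DMSO. Controls: DMSO and RFP-L50D-GFP cell wells. Timing: cells overnight before dosing, compound overnight, 37 °C, 5% CO2. Measure: GFP/RFP fluorescence ratio.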
eIF4H inh: inhibitors of RNA binding by human eIF4H. Q15056. eIF4H fluorescence polarization binding assay. inhibition, % at 35 µM. hit rate 0.94% among 290,000;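 active = 50% or more with normal probe brightness, or confirmed in later tests; inconclusive = above 50% with abnormal brightness, or retests that disagree; inactive = below 50% or failed in later tests; about a fifth of its hits are not listed in these tables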;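 also: calls also rest on retests at 20 µM and on dose response follow-up; 0% = protein and probe with vehicle and 100% = probe without protein; strong numbers were not always called active; many hits fall short of the cut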
PABP FP inh: blocks human PABP binding to poly(A) RNA | inhibition, % at 35 µM | fluorescence polarization | P11940 | hit rate 1% among 290,000;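 active = 50% or more with normal probe brightness, or confirmed in later tests; inconclusive = above 50% with abnormal brightness, or retests that disagree; inactive = below 50% or failed in later tests; about a fifth of its hits are not listed in these tables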;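 also: calls also rest on retests at 20 µM and on dose response follow-up; controls were probe without protein and protein plus probe with vehicle; some compounds called inactive have numbers as strong as hits; many hits fall short of the cut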
Target sequence (P11940 whole entry, looked up): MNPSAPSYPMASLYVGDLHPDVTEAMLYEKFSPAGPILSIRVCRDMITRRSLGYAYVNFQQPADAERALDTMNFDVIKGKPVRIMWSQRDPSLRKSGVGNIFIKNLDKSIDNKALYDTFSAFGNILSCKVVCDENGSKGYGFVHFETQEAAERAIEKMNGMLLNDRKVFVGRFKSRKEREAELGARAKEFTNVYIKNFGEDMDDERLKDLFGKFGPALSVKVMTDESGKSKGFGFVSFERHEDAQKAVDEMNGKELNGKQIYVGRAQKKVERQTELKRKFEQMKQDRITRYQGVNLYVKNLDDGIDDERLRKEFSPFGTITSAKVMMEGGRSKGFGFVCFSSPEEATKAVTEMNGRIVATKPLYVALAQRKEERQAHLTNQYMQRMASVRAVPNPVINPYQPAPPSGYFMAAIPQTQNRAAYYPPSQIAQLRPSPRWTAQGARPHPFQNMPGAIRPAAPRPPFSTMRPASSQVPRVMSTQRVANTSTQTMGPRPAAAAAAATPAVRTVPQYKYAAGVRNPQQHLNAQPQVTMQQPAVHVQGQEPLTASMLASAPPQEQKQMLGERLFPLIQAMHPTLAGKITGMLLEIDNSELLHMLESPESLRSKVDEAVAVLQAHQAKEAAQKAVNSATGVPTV
Env fusion inh: inhibitors of HIV Env-mediated cell fusion; HeLa-JRFL Env/CEM21 cell fusion, luciferase; inhibition, % at 12.3 µM; hit rate 1.1% among 360,000;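 active = mean replicate inhibition score of at least 50 and every replicate individually at or above 50; inconclusive = only one of the two criteria met; inactive = mean below 50 and not all replicates reaching 50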;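 also: 0% = plate neutral controls and 100% = maraviroc near 300 nM; one replicate is shown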
Yeast UUG start: yeast start codon fidelity modulation. hit rate 0.13% among 350,000. AID 602363. activity score, % at 18.7 µM. S. cerevisiae UUG-firefly luciferase reporter, luminescence/redox ratio;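 active = replicate mean at a twofold rise or more, about +100% in these data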;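 also: firefly luciferase made from a UUG start codon reports start codon fidelity; reporter light over untreated wells divided by growth signal over untreated wells; some hits fall short of that in this replicate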
CSC inhib: cancer stem cell inhibition. cancer stem cell-like cells viability, luminescence. inhibition, % at 7.5 µM. hit rate 1.1% among 300,000. AID 2717;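 active = mean at 75% or more and at least half the replicates too; inconclusive = mean and replicates disagree; tested in HMLE shEcad cells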;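 also: 0% = median of negative and 100% = median of positive control wells; the first replicate is given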
Rce1 inh: yeast Ras-converting enzyme inhibition; Q03530; yeast membranes, quenched prenylated peptide cleavage fluorescence; calls only; hit rate 0.27% among 290,000; AID 2563;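 active = fall in fluorescence gain of 50% or more versus controls, with final raw signal at or below 3038400; inconclusive = same 50% fall but final raw signal above 3038400; inactive = fall in fluorescence gain under 50%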;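 also: plate controls were neutral control wells for no effect and wells lacking membranes for full effect; tested at 10 µM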
Target sequence (Q03530 whole entry, looked up): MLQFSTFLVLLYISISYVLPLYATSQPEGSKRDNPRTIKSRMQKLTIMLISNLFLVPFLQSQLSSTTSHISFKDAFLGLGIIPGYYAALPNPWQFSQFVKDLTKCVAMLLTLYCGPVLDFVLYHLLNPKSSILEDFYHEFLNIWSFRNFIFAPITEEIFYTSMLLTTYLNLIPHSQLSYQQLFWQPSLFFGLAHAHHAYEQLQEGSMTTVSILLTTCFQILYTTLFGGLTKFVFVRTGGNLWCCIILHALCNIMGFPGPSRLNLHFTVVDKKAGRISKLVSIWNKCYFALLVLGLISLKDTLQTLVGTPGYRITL
eIF4H inh retest: recorded beside eIF4H inh, whose call it bears; inhibition, %; compound at 20 µM; confirmation average;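 mean of two retest wells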
PABP FP inh retest: recorded beside PABP FP inh, whose call it bears; inhibition, %; compound at 20 µM; confirmation repeats;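 mean of two retest wells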
MT1-MMP act inh RFP: also measured in MT1-MMP act inh; calls as there; RFP signal change, %; measured here: RFP expression control read;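 0 = vehicle wells; hits needed this value within 50% of zero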
An asterisk follows results filed as active; i = inactive; ? = inconclusive; . = no result given.

SMILES	MT1-MMP act inh	MT1-MMP act inh RFP	eIF4H inh	PABP FP inh	Env fusion inh	Yeast UUG start	CSC inhib	Rce1 inh	others
O=C(c1ccc(S(=O)(=O)NCc2ccco2)cc1)N1CCN(c2ccccc2)CC1	6	-1	.	.	0	1	-16	.
O=C(CN1C(=O)c2cccnc2C1=O)c1ccccc1	0	3	4	-5	-70	-17	-2	i
Cc1ccc(-c2[nH]nc3c2C(c2ccc(OC(=O)N4CCOCC4)cc2)C(C#N)=C(N)O3)cc1 (stereo unspecified)	-1	1	5	3	.	.	-18	i
CC(C)Cc1cc(CN2CCC(CO)(Cc3cccc(C(F)(F)F)c3)CC2)[nH]n1	3	-1	2	5	12	.	18	i
O=C(Nc1ccc2c(c1)CCC2)C1COc2ccccc2O1 (stereo unspecified)	5	5	3	7	.	-8	10	.
CCC(C)NC(=O)c1c(-c2cc(Cl)c(OC)c(Cl)c2)noc1C (stereo unspecified)	-3	3	4	-2	-2	-8	4	i
Cc1ccc(C(C)NC(=O)C2CCCC2)cc1C (stereo unspecified)	1	-3	-7	0	4	7	-10	i
NC(CCc1ccccc1)c1csc(NC(=O)Nc2cccc(Cl)c2)n1 (stereo unspecified)	-5	-5	.	.	24	-1	.	.
CC(=Cc1ccccc1)C=C1SC(=S)N(CCCC(=O)Nc2ccc(C(=O)O)c(O)c2)C1=O	1	5	.	.	11	-25	.	.
COc1ccccc1NC(=O)CSc1nnc(COc2ccccc2C)o1	-2	-3	2	12	1	-5	-5	i
O=C(Nc1ccn(Cc2ccccc2)n1)c1ccc(F)cc1	2	-6	1	-1	-20	-35	.	i
CC1CN(C(=O)COC(=O)c2cc(=O)c3ccccc3o2)CC(C)O1 (stereo unspecified)	0	2	-3	-3	-35	-8	.	i
Cc1ccc(S(=O)(=O)N2CCCC2C(=O)O)s1 (stereo unspecified)	3	2	2	3	-3	5	-9	i
CCOc1ccc(CCN2C(=O)C3C4C=CC(C4)C3C2=O)cc1OCC (stereo unspecified)	-2	2	3	0	21	19	.	i
CN(CCc1ccccc1)C(=O)c1ccc(NC(=O)Cc2ccc(NC(=O)C3CCCN(S(=O)(=O)c4cccc([N+](=O)[O-])c4)C3)cc2)cc1 (stereo unspecified)	5	-18	.	.	7	-15	.	.
Cc1ccc(CNS(=O)(=O)c2ccc(F)c(F)c2)n1C	-2	1	9	4	11	-17	0	i
Cc1c(Br)c([N+](=O)[O-])nn1C(C)C(=O)NCc1ccco1 (stereo unspecified)	-1	7	4	6	-18	-8	1	i
COCCNC(=O)c1cccc(S(=O)(=O)N2CC3(C)CC2CC(C)(C)C3)c1 (stereo unspecified)	0	-2	.	.	2	.	-12	i
CC1CCCCC1NC(=O)CSc1nnc(C(F)(F)F)n1C (stereo unspecified)	3	4	.	.	-18	6	.	.
COc1cccc(NC(=O)c2cc(-c3cccnc3)nc3c(Cl)cccc23)c1	19	1	-4	1	-48	-2	.	i
CC(C)C(NS(=O)(=O)c1ccccc1F)C(=O)OCC(=O)NCc1ccco1 (stereo unspecified)	0	-1	.	.	1	-7	.	.
O=C(CCCN=C1NS(=O)(=O)c2ccccc21)OCc1ccccc1	0	2	.	.	-48	2	-9	i
COc1ccccc1NC(=O)Cn1nnc2sc3c(c2c1=O)CC(C)(C)OC3	0	-6	-3	-11	4	-12	0	i
Cc1cc(C(=O)CN2C(=O)C(=O)N(C)C2=O)c(C)n1-c1cccc(S(=O)(=O)N2CCOCC2)c1	1	-1	9	4	23	9	-9	i
Cc1ccc2nc(SCC(=O)Nc3cccc(S(N)(=O)=O)c3)[nH]c2c1	3	2	-7	-4	4	.	-9	i
COc1ccc(CCNC(=O)CSc2nnnn2-c2ccc(OC)c(OC)c2)cc1OC	3	6	5	-3	10	.	-17	i
CN(CC(O)COC(c1ccccc1)c1ccccc1)C1CCCCC1 (stereo unspecified)	5	6	0	29	13	.	-12	i
CN(C(=O)COc1cc(=O)n(C)c2ccccc12)c1ccc(Br)cc1	-1	3	-1	-13	-23	-8	-16	i
CC(C)(C)C1CCc2onc(C(=O)O)c2C1 (stereo unspecified)	3	1	8	17	-59	.	-6	i
CC(C)C(=O)Nc1cccc(NC(=O)c2cccc([N+](=O)[O-])c2)c1	6	1	6	-7	-5	-9	-10	i
Cc1cc(=O)oc2cc(OCC(O)Cn3ccnc3)ccc12 (stereo unspecified)	-3	1	-5	7	-25	-25	-8	i
O=C(NCc1ccccc1)C(c1ccccc1)N(C(=O)c1csnn1)c1ccc(F)cc1 (stereo unspecified)	-1	-1	0	5	4	-2	-15	i
CN1C(=O)C(O)(C2CCCCCC2=O)c2ccccc21 (stereo unspecified)	0	1	-7	4	13	-4	5	i
O=C(CNc1cccc(F)c1)Nc1cccc(S(=O)(=O)N2CCCCC2)c1	5	5	.	.	1	-7	.	.
C[C@H](O)[C@@H]1C(=O)N2CCc3ccc(-c4ccccc4)cc3[C@@H]2C[C@@H]1N(C)C(=O)NC1CCCCC1	3	0	.	.	-5	-3	.	.
COc1ccc(/C=C/C(=O)Nc2ccc(C34CC5CC(CC(O)(C5)C3)C4)cc2)cc1OC	2	-10	-5	10	-139	.	91*	i
CCOc1ccc(C(C)=O)cc1Cn1nc(C(=O)O)c2ccccc2c1=O	-2	0	-6	-14	-21	-4	-2	i
CCN1CCN(CCC(=O)Nc2cc(OC)cc(OC)c2)CC1	-1	1	-3	8	-64	-18	11	i
CCN(CC)C(=S)Nc1c(C)n(C)n(-c2ccccc2)c1=O	0	1	7	2	-3	.	0	i
O=C(Cn1c(C(F)(F)F)nc2ccccc21)N1CCCC1	-8	4	-5	-4	-80	-11	2	i
Cc1ccc(C)c(N2CCN(c3nnnn3-c3ccccc3)CC2)c1	-7	-7	5	0	.	-2	28	i
CC(NS(=O)(=O)c1cccc(Cl)c1)C(=O)Nc1ccc(-c2nc3ccccc3s2)cc1 (stereo unspecified)	14	-9	-1	-4	.	-10	8	i
CCCn1cc(C(=O)OCC)c(=O)c2cc(F)c(F)cc21	-1	0	5	0	-7	3	-9	i
CC(=O)c1ccccc1NCC(=O)Nc1ccc(C)cc1	4	-2	-8	-13	-8	-10	22	i
CC1(C(=O)NS(=O)(=O)c2cccs2)CCN1C(=O)CCc1ccc(Cl)cc1Cl (stereo unspecified)	-5	2	.	.	-10	-29	.	.
O=C(COC(=O)c1ccccc1[N+](=O)[O-])Nc1cc(S(=O)(=O)N2CCOCC2)ccc1N1CCCC1	1	-3	-5	-1	-3	.	-6	i
Cc1cc(SCC(=O)NN=C2CCN(C(C)C)CC2)c(C)cc1Br	-1	3	-4	6	-2	-6	-26	i
COc1cc(C2CC(=O)NC3=C2C(=O)CC(C)(C)C3)cc(OC)c1O (stereo unspecified)	-2	2	-2	-5	.	-18	-7	i
Cc1cc(Cl)ccc1C(=O)C1CCCN(C(=O)c2nonc2C)C1 (stereo unspecified)	3	-1	-4	4	3	2	-18	i
COc1ccccc1N1CCN(C2CCCN(C(=O)c3cc(C(C)C)on3)C2)CC1 (stereo unspecified)	6	6	.	.	-5	-5	.	.
CC(=O)N1N=C(c2ccccc2)OC1c1ccc([N+](=O)[O-])s1 (stereo unspecified)	-7	-1	-1	7	.	.	-10	i
COc1cc(SC)ccc1C(=O)Nc1ccccc1C#N	-3	-1	-11	7	i	501*	-7	i
Cn1c(CCNS(=O)(=O)c2ccc(F)cc2)nnc1SCc1cccnc1	0	-1	-1	-4	1	-20	-13	i
C/C(CC(=O)NC1CCCC1)=N\NC(=O)Cc1cccs1	6	6	9	3	-35	-14	-9	i
Cn1c(=O)n(Cc2ccc(F)cc2)c(=O)c2c1nc1n2CCN1Cc1ccco1	1	-6	8	7	-19	-6	1	i
COc1ccc(C)cc1NC(=O)Cc1c(C(=O)O)n(C)c2ccccc12	2	0	-8	13	2	0	-7	i
Cc1cc(NC(=O)c2cc(S(=O)(=O)N3CCCCC3)ccc2C)no1	6	2	.	.	-6	-14	5	.
O=C(CS(=O)(=O)c1ccccc1)Nc1cccnc1	2	2	12	8	-2	.	-16	i
CC1CCc2[nH]nc(C(=O)O)c2C1 (stereo unspecified)	-5	2	0	6	-32	-21	-3	i
Cc1ccc(Nc2nc(N)c([N+](=O)[O-])c(N3CCOCC3)n2)cc1C	-3	-1	-11	8	.	-6	-5	i

Compounds listed so far containing two or more sulfur atoms:
SMILES	MT1-MMP act inh	MT1-MMP act inh RFP	eIF4H inh	PABP FP inh	Env fusion inh	Yeast UUG start	CSC inhib	Rce1 inh	others
CC(=Cc1ccccc1)C=C1SC(=S)N(CCCC(=O)Nc2ccc(C(=O)O)c(O)c2)C1=O	1	5	.	.	11	-25	.	.
Cc1ccc(S(=O)(=O)N2CCCC2C(=O)O)s1 (stereo unspecified)	3	2	2	3	-3	5	-9	i
Cc1ccc2nc(SCC(=O)Nc3cccc(S(N)(=O)=O)c3)[nH]c2c1	3	2	-7	-4	4	.	-9	i
CC(NS(=O)(=O)c1cccc(Cl)c1)C(=O)Nc1ccc(-c2nc3ccccc3s2)cc1 (stereo unspecified)	14	-9	-1	-4	.	-10	8	i
CC1(C(=O)NS(=O)(=O)c2cccs2)CCN1C(=O)CCc1ccc(Cl)cc1Cl (stereo unspecified)	-5	2	.	.	-10	-29	.	.
Cn1c(CCNS(=O)(=O)c2ccc(F)cc2)nnc1SCc1cccnc1	0	-1	-1	-4	1	-20	-13	i

The list goes on:
SMILES	MT1-MMP act inh	MT1-MMP act inh RFP	eIF4H inh	PABP FP inh	Env fusion inh	Yeast UUG start	CSC inhib	Rce1 inh	others
COc1ccc(C(=O)COC(=O)c2nn(C)cc2Cl)cc1	8	13	72	9	-11	-8	-15	i	eIF4H inh retest=0;PABP FP inh retest=3
CC(C)NC(=NCc1ccc(Cl)cc1Cl)Nc1ccccc1	.	.	-6	16	4	-3	6	i
Oc1cccc(-c2nc3c4c(ncn3n2)-c2ccccc2CC42CCCC2)c1	-19	-17	-12	-5	.	1	111*	i
COc1ccc(Br)cc1C(=O)Nc1ccccc1N1CCN(C(=O)c2ccccc2)CC1	-9	-2	-12	-4	23	.	7	i
Cc1ccccc1NC(=O)Cc1cccc(C(F)(F)F)c1	-2	1	-4	1	15	-15	-4	i
COC(=O)Cn1c(O)c(N=NC(=O)CNC(=O)c2ccncc2)c2ccccc21	1	-1	.	.	-3	-26	4	i
COc1ccc(NC(=O)/C(Cl)=C(/Cl)S(=O)Cc2ccc(Cl)cc2)cn1 (stereo unspecified)	-26	-36	-2	-5	4	.	.	.
CN(C)CCNS(=O)(=O)c1ccc(Cl)cc1	-4	4	4	-1	-36	-17	-2	i
COCCCNC(=S)N/N=C/c1ccc2c(c1)OCO2	-1	5	9	2	8	-27	-9	i
N#CCCN(C(=O)COC(=O)CSc1ccc(Cl)cc1)c1ccccc1	0	1	.	.	.	-2	-2	.
CCCCCCOc1ccc(/C(C)=N/NC2=NCCN2)cc1[N+](=O)[O-]	-6	-17	-9	-7	-13	.	?	i
CCC(C)N(C(=O)CSc1nc2ccc(OC)cc2[nH]1)C1CCS(=O)(=O)C1 (stereo unspecified)	-1	4	.	.	9	.	-9	i
CC(=O)Cn1c(CN2CCCC2)nc2ccccc2c1=O	3	7	-5	1	11	-24	12	i
CCOc1ccccc1N1CC(C(=O)Nc2cc(Cl)ccc2C)CC1=O (stereo unspecified)	2	0	-14	2	0	-4	-10	.
Cc1cccc(NC(=O)CSc2nccn2C)c1	3	6	.	.	.	.	17	i
Cc1ccc2nc3ccc(N4CCCC4)nn3c(=O)c2c1	-18	3	-9	3	.	-32	-8	i

Compounds as they come. About 2.9% of those tested had a hit in this group.
